USP2a inhib = blocks human ubiquitin-specific protease USP2a. USP2a enzymatic assay, qHTS inhibition. Potency, µM (doses to about 38.3 µM), without a hit: at the top dose activity change, negative = inhibition, most hits filed as inhibitors. 60,000 compounds, 0.1% hits;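 further: potency means the concentration at half of the fitted maximal effect; nearly all actives have a fitted effect of over 60% in size; plate controls were DMSO for no effect and NEM full inhibition control for full effect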
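Coupled readout: USP2-cleaved Ub-PLA2 (20nM final) turns over NBD C6-HPC (20uM final), Ex 460nm/Em 535nm after 2.5 h, time-zero read flagging artifacts. Enzyme (20nM final, pH 8.0 Tris) given 30 min RT with compound first; NEM defines full inhibition.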
CRE Fsk mod = modulators of forskolin-stimulated CRE signaling in CHO cells; CHO CRE-bla reporter (cAMP response element driving beta-lactamase), forskolin EC10, beta-lactamase ratio; Potency, µM (series often up to 38.2 µM), without a hit: top-dose activity change, negative = inhibition, actives largely listed as activators; 71,000 compounds, 2.5% hits; AID 662; active means well fitted activation curve with a large enough effect in the signal ratio, with a control signal flat, not every such curve was filed as active; inconclusive means small, poorly fitted or top-dose-only effect, or effect the other way, or a change in a side signal; the % refers to the signal ratio; further: potency means the concentration at half of the fitted maximal effect; % of control where 0% means no effect
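CHO CRE-bla cells, overnight plating in Opti-MEM with 0.5% dialyzed FBS; cpd titration + EC10 NKH 477, 3 h 37 °C; CCF4 2 h RT; ex 405/em 460 vs 530 ratio → %Activity, AC50.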
BRCT inh green = inhibitors of human BRCA1 BRCT-phosphoprotein interaction (green fluorophore); 75,000 compounds, 0.05% hits; Potency, µM (doses to about 76.9 µM), for the others: at the top dose activity change, negative = inhibition, hits mostly inhibitors; AID 875; BRCA1 BRCT-phosphopeptide binding, green fluorescence polarization;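 further: potency means the concentration at half of the fitted maximal effect; plate controls were peptide without protein for full effect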
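Compounds were incubated for 12 min at room temperature with a complex of 100 nM fluorescein-tagged pBACH1 decapeptide and 250 nM His-tagged BRCT protein. Buffer was phosphate pH 7.3 with EDTA, DTT and Tween 20. Disruption of binding lowers the polarization signal.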
Tau filament bind = binds recombinant human tau filaments; P10636; recombinant tau filaments, thioflavin S fluorescence, 15 h; filaments grown with octadecylsulfate alongside compound; Potency, µM (titrated, usually from 57.1 µM), for inactives: at the top dose activity change, negative = inhibition; 71,000 compounds, 2% hits;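 further: potency means the concentration at half of the fitted maximal effect; on the % scale 0 is the no-effect control and ±100 the full control effect; actives lower thioflavin S fluorescence by blocking filaments or displacing dye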
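Tau 2 uM in ThS buffer dispensed; compound added; 60 uM ODS added (finals 1 uM tau, 30 uM ODS); 15 h 37 C; fluor ex450/em510.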
HEK293 cAMP ctrl = raises cAMP in parental HEK293 cells, TSHR agonist counter-screen; 73,000 compounds, 2.5% hits; AID 938; Potency, µM (highest dose often 57.1 µM), for inactives: top-dose activation, actives largely listed as activators; parental HEK293 CNG cAMP sensor, membrane potential fluorescence; further: potency means the concentration at half of the fitted maximal effect; % of control where 0% means no effect; nearly all actives have a fitted effect of over 55% in size
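Parental HEK 293 cells stably expressing a modified CNG channel (no TSHR) report cAMP rise as membrane depolarization. Membrane potential dye with 100 uM RO 20-1724 was loaded for 60 min at room temperature, then compound added for 30 min; fluorescence read at 590 nm.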
Luciferase inh = blocks Photinus pyralis firefly luciferase activity; P08659; purified firefly luciferase, luminescence, 8 min; Potency, µM (titrated, usually from 57.1 µM), for inactives: at the top dose activity change, negative = inhibition, most hits filed as inhibitors; 72,000 compounds, 2.2% hits; AID 411; further: potency means the concentration at half of the fitted maximal effect; on the % scale 0 is the no-effect control and ±100 the full control effect; nearly all actives have a fitted effect of over 40% in size
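Here, luciferase activity is measured as luminescence following an 8 min room-temperature reaction at 10 uM ATP, pH 7.2. Every library sample is titrated.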
ERK AVP block = blocks ERK signaling stimulated by vasopressin; HEK293-V1b, vasopressin-stimulated pERK AlphaScreen; Potency, µM (titrated, usually from 57.5 µM), for the others: top-dose activity, negative = inhibition, hits mostly inhibitors; 72,000 compounds, 0.99% hits; AID 995; further: potency means the concentration at half of the fitted maximal effect; on the % scale 0 is the no-effect control and ±100 the full control effect; nearly all actives have a fitted effect of over 55% in size
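HEK293 cells stably expressing V1b receptor, seeded overnight in 1% FBS, were treated with compounds for 30 min at 37C, then stimulated 5 min with 25 nM vasopressin; phospho-ERK read by AlphaScreen SureFire after lysis.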
BRCT inh red = BRCT-phosphoprotein interaction inhibition (red fluorophore); P38398; BRCT-phosphopeptide binding, red fluorescence polarization; AID 892; 75,000 compounds, 0.03% hits; Potency, µM (titrated, usually from 76.9 µM), for inactives: at the highest dose activity change, negative = inhibition, hits mostly inhibitors; further: on the % scale 0 is the no-effect control and ±100 the full control effect
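Fluorescence polarization: 100 nM His-tagged BRCA1 BRCT with 100 nM TAMRA-labelled phospho-BACH1 decapeptide, phosphate buffer pH 7.3 with 150 mM NaCl, DTT, 0.01% Tween 20; 12 min RT. Binding inhibition seen as FP decrease.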
Numbers without * were called inactive; i = inactive; ? = inconclusive; [ ] = another dose, or the depositor's remark. Unless noted, the call rests on the fitted dose curve; in most records, active means well fitted curve in the direction sought with a large enough effect; inconclusive means small, poorly fitted or top-dose-only effect, or another doubt; inactive means no such curve, though single readings can be large; an effect the other way counts as inactive or inconclusive. Some of the compounds tested; the hit share may differ from the screen's.

1) O=C(O)Cn1c2c(c3ccccc31)CCCC2
2) O=C(NCc1ccco1)c1cccn2c(=O)c3sccc3nc12
3) CCOC(=O)CCc1c(C)c2ccc(O)cc2oc1=O
4) CCNc1ncc2nc(-c3ccc(OC)cc3)c(=O)n(C)c2n1
5) CN(C)c1ncc2nc(-c3ccc(F)cc3)c(=O)n(C)c2n1
6) Cc1ccc2nc3c(cc(C(N)=S)c(=N)n3CCCOC(C)C)c(=O)n2c1
7) N#CCCn1c(=O)c(CCc2ccccc2)nc2cnc(N3CCOCC3)nc21
8) O=c1c(-c2cccs2)nc2cnc(N3CCOCC3)nc2n1Cc1cccs1
9) Cc1[nH]c2ccccc2c1CC(=O)O
10) Cc1ccc(NC(=O)CC2SC3=NCCCN3C2=O)c(C)c1 (configuration not stated)

Compound | 1 | 2 | 3 | 4 | 5 | 6 | 7 | 8 | 9 | 10
USP2a inhib | 9% | 22% | -8% | 103%[activator] | 13% | 23% | 19% | 123%[activator] | -2% | 26%
CRE Fsk mod | -8% | 13µM* | ? | ? | 2.5µM* | 10µM* | 3.2µM* | ? | -3% | -8%
BRCT inh green | -3.6% | -3.5% | 0.0% | 7.2% | -0.4% | 6.6% | 3.3% | -1.8% | -2.1% | -1.1%
Tau filament bind | 379% | -10% | 2% | 129% | 3% | 329% | 82% | i | 48% | 254%
HEK293 cAMP ctrl | 15% | 18% | 11% | -9% | 9% | -24% | 15% | 10% | 1% | -4%
Luciferase inh | -1% | -2% | 4% | -24%[11.4 µM] | -2%[11.4 µM] | -6% | 0%[11.4 µM] | 1%[11.4 µM] | -1% | -1%
ERK AVP block | 7% | 6% | -13% | 2% | 15% | -11% | ? | 8% | -8% | -19%
BRCT inh red | -2.1% | -0.8% | -0.4% | 0.9% | 1.6% | 2.9% | -1.5% | -0.9% | 1.9% | 1.3%

Gathered by group: the entries above with a thiophene ring, fused or not
2) O=C(NCc1ccco1)c1cccn2c(=O)c3sccc3nc12
8) O=c1c(-c2cccs2)nc2cnc(N3CCOCC3)nc2n1Cc1cccs1

Compound | 2 | 8
USP2a inhib | 22% | 123%[activator]
CRE Fsk mod | 13µM* | ?
BRCT inh green | -3.5% | -1.8%
Tau filament bind | -10% | i
HEK293 cAMP ctrl | 18% | 10%
Luciferase inh | -2% | 1%[11.4 µM]
ERK AVP block | 6% | 8%
BRCT inh red | -0.8% | -0.9%

Next part
11) CCCCNC(=O)c1cc2c(=O)n3cccc(C)c3nc2n(Cc2ccccc2)c1=N
12) CCNc1cccc2c1C(=O)N(C)C2=O
13) Nc1c(C(=O)NCCN2CCOCC2)c2nc3ccccc3nc2n1CCc1ccccc1
14) COc1cccc(Nc2ncc3nc(CCc4ccccc4)c(=O)n(C4CC4)c3n2)c1
15) COc1cccc(C2C3CN(C)CC=C3C(C#N)=C(N)C2(C#N)C#N)c1OC (configuration not stated)
16) COCCn1c(=O)c(-c2ccc(Cl)cc2)nc2cnc(Nc3ccccc3)nc21
17) CCOC(=O)c1cc2c(=O)n3ccccc3nc2n(Cc2ccco2)c1=NC(=O)c1cccnc1
18) CCOC(=O)CC(=O)CSc1nc(-c2cccnc2)ccc1C#N
19) Cc1c(N=Cc2c(O)n(Cc3ccco3)c(=O)c3ccccc23)c(=O)n(-c2ccccc2)n1C
20) COCCCn1c(=S)[nH]c2ccc(N3CCOCC3)cc2c1=O

Compound | 11 | 12 | 13 | 14 | 15 | 16 | 17 | 18 | 19 | 20
USP2a inhib | 9% | 34%[activator] | 38%[activator] | 107%[activator] | 5% | 74%[activator] | 39%[activator] | 13% | 15% | 62%[activator]
CRE Fsk mod | 2.5µM* | ? | ? | ? | ? | ? | ? | 10µM* | 3.2µM* | ?
BRCT inh green | -0.9% | ? | 7.7% | 42%[activator] | -2.6% | -2.0% | -2.6% | 4.0% | -1.3% | -4.4%
Tau filament bind | 0.2µM* | i | 34% | 442% | i | 386% | 258% | 15% | 16% | 26%
HEK293 cAMP ctrl | -78%[inhibitor] | 0% | 5% | 12% | 4% | 24% | -1% | -2% | -18% | -4%
Luciferase inh | 1% | 3% | 2% | 0%[11.4 µM] | 0% | 1%[11.4 µM] | 2% | -7% | 4% | -4%
ERK AVP block | 3% | 2% | 3% | 13% | -4% | 16% | 13% | ? | -6% | -4%
BRCT inh red | 0.1% | -0.5% | 0.0% | 1.3% | -1.0% | -0.4% | 0.4% | 1.8% | 0.1% | 0.6%

21) CCCn1c2ccccc2c2nc3ccccc3nc21
22) CCCCn1c(=NC(=O)c2ccc3c(c2)OCO3)c(C#N)cc2c(=O)n3cccc(C)c3nc21
23) Cc1ccc(Cn2c(=N)c(C(=O)NCc3ccco3)cc3c(=O)n4ccccc4nc32)cc1
24) Cc1[nH]ccc2c1[nH]c1cc(=O)ccc12
25) Nn1c(-c2cccs2)nc2sc3c(c2c1=O)CCCC3
26) CN1CCN(C(=O)c2cc3c(ccc4ccccc43)oc2=O)CC1
27) O=c1c(-c2cccs2)nc2cnc(N3CCNCC3)nc2n1C1CC1
28) CC(=O)c1c(C)nc2nonc2c1N

Compound | 21 | 22 | 23 | 24 | 25 | 26 | 27 | 28
USP2a inhib | ? | 7% | 38%[activator] | 2% | 7% | -3% | 212%[activator] | 1%
CRE Fsk mod | ? | ? | ? | ? | ? | ? | ? | ?
BRCT inh green | -3.3% | -3.0% | 0.8% | 0.4% | -2.2% | -2.4% | -3.5% | -1.5%
Tau filament bind | -17% | 2% | 3.2µM* | ? | 139% | 49% | i | 16%
HEK293 cAMP ctrl | ? | -16% | -84%[inhibitor] | 5% | ? | -3% | -15% | 2%
Luciferase inh | -2% | 1% | -3% | 2%[11.4 µM] | 16µM* | 0% | 1%[11.4 µM] | 1%
ERK AVP block | 107%[activator] | 2% | -16% | 0% | 12% | 1% | 29% | 1%
BRCT inh red | -0.3% | -1.9% | -0.1% | -0.2% | -1.6% | 0.2% | 1.2% | 0.7%

Looked up above.
For BRCT inh red, `COCCn1c(=O)c(-c2ccc(Cl)cc2)nc2cnc(Nc3ccccc3)nc21` is listed with -0.4%
For CRE Fsk mod, `CCOC(=O)CC(=O)CSc1nc(-c2cccnc2)ccc1C#N` is listed with 10µM*
For BRCT inh red, `Cc1ccc2nc3c(cc(C(N)=S)c(=N)n3CCCOC(C)C)c(=O)n2c1` is listed with 2.9%
For HEK293 cAMP ctrl, `CC(=O)c1c(C)nc2nonc2c1N` is listed with 2%
For BRCT inh red, `CCNc1ncc2nc(-c3ccc(OC)cc3)c(=O)n(C)c2n1` is listed with 0.9%
For HEK293 cAMP ctrl, `CCNc1cccc2c1C(=O)N(C)C2=O` is listed with 0%

Screens: PubChem, National Center for Advancing Translational Sciences (NCATS)
